High-throughput results deposited in PubChem BioAssay by National Center for Advancing Translational Sciences (NCATS).
RE007 growth inh – qHTS Assay for Inhibitors of the HIV-1 protein Vpr | S. pombe RE007 Vpr strain, BacTiter-Glo ATP luminescence, 24 h; control for the full effect not named in the record | Potency, µM (top dose mostly 92.2 µM), for the others: at the top dose activity change, negative = less growth | 0.21% of 360,000 active | AID 651644, 2012; active = well fitted falling curve with a large enough effect; inconclusive = small, poorly fitted or top-dose-only effect; inactive = no such curve, though single readings can be large or run the other way;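 further: on the % scale 0 is the no-effect control and ±100 the full control effect; nearly all actives have a fitted effect of over 50% in size; the assay follows cell death caused by Vpr and the record does not say whether a fall means rescue or toxicity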
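Fission yeast RE007 carrying one integrated HIV-1 vpr copy, seeded at OD 0.01 in PMG+AL medium with 23 nL pinned compound. Grown 24 h at 30 degrees; viability read by BacTiter-Glo luminescence after 5 min.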
Cruzain inh Det – qHTS Assay for Promiscuous and Specific Inhibitors of Cruzain (with detergent); Potency, µM, for the others: max response, negative = inhibition, most hits filed as inhibitors; purified cruzain, Z-FR-AMC fluorescence, 0.01% Triton; 0.43% of 200,000 active; active means well fitted curve in the direction sought with a large enough effect; inconclusive means small, poorly fitted or top-dose-only effect, or another doubt; inactive means no such curve, though single readings can be large; an effect the other way counts as inactive or inconclusive;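 further: plate controls were neutral wells for no effect and buffer without enzyme for full effect; nearly all actives have a fitted effect of over 40% in size; top concentration of the series not given in the record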
Target sequence (P25779 123-467 limits assumed): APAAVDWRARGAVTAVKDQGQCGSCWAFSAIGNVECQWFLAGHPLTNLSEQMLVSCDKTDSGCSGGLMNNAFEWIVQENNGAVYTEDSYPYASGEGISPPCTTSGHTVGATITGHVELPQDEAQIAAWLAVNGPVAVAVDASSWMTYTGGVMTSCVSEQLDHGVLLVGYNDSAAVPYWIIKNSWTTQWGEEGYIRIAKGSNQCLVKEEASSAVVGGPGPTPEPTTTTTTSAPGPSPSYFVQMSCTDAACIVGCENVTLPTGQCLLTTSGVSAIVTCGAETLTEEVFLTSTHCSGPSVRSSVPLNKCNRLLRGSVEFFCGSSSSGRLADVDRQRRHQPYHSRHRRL
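In this qHTS format, compounds are incubated with 1.5 nM cruzain for 15 min at room temperature before 2 uM Z-FR-AMC is added. Release of AMC is followed at 360/450 nm, and progress is taken as the 60 s fluorescence difference.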
Lassa entry inh – qHTS for Inhibitors of binding or entry into cells for Lassa Virus. 1.2% of 300,000 active. Potency, µM (doses to about 37.9 µM), for inactives: at the top dose activity change, negative = inhibition, actives largely listed as inhibitors. Lassa virus pseudotype entry inhibition, cell reporter; control for the full effect not named in the record. AID 540256, 2011; active means well fitted inhibition curve with a large enough effect; inconclusive means small, poorly fitted or top-dose-only effect, or effect the other way; inactive means flat fitted curve, though single readings scatter; tested in HEK293 cells; further: on the % scale 0 is the no-effect control and ±100 the full control effect; nearly all actives have a fitted effect of over 50% in size; luciferase read-out
SARS PLpro yeast – qHTS of Yeast-based Assay for SARS-CoV PLP | 0.19% of 330,000 active | S. cerevisiae expressing SARS-CoV PLpro, growth rescue; control for the full effect not named in the record | AID 485353, 2010 | Potency, µM (titrated, usually from 32.9 µM), for the others: top-dose activity, positive = growth rescue; further: 0% is about no effect; nearly all actives have a fitted effect of over 55% in size; growth read by luminescence after 48 h
StopGo reporter – High Throughput Screening for Foot and Mouth Disease Virus Antivirals. 1.2% of 410,000 active. Potency, µM (top dose mostly 57.9 µM), for the others: at the top dose signal change, negative = less light. human cells with a luciferase reporter of 2A StopGo recoding; control for the full effect not named in the record. AID 1159524, 2015; active = well fitted falling curve with a large enough effect; inconclusive = small, poorly fitted or top-dose-only effect; inactive = no such curve, though single readings can be large or run the other way; tested in HEK293T cells; further: on the % scale 0 is the no-effect control and ±100 the full control effect; nearly all actives have a fitted effect of over 45% in size; luciferase light after 4 h
MARV entry inh – qHTS for inhibitors of binding or entry into cells for Marburg Virus. Marburg virus pseudotyped entry inhibition, cell reporter; control for the full effect not named in the record; about a third of the inactives were read at about 46 µM. Potency, µM (doses to about 37.8 µM), without a hit: at the highest dose activity change, negative = inhibition, most hits filed as inhibitors. 1.8% of 300,000 active; active = well fitted inhibition curve with a large enough effect; inconclusive = small, poorly fitted or top-dose-only effect, or effect the other way; inactive = flat fitted curve, though single readings scatter; tested in HEK293 cells; about a fifth of its hits are not listed in these tables; further: on the % scale 0 is the no-effect control and ±100 the full control effect; luciferase read-out
NS1 function inh – qHTS Assay for Inhibitors of Influenza NS1 Protein Function; S. cerevisiae slowed by influenza A NS1, growth recovery by OD600; Potency, µM (series often up to 46.1 µM), without a hit: top-dose activity, positive = more growth; 0.4% of 270,000 active; AID 2326, 2010; further: actives are rising curves; nearly all actives have a fitted effect of over 50% in size
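A cell-based growth assay was used: compounds that relieve NS1-induced slow growth of budding yeast raise OD600. Assay medium was yeast nitrogen base with ammonium sulphate and -URA supplement, pH 6.0, with 2% galactose.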
Cruzain noTriton – qHTS Assay for Promiscuous and Specific Inhibitors of Cruzain (without detergent); Cruzipain (Trypanosoma cruzi), P25779; purified cruzain, Z-FR-AMC fluorescence, no detergent; 2.3% of 200,000 active; Potency, µM, inactives show max response, negative = inhibition, actives largely listed as inhibitors; AID 1476, 2009; active means well fitted curve in the direction sought with a large enough effect; inconclusive means small, poorly fitted or top-dose-only effect, or another doubt; inactive means no such curve, though single readings can be large; an effect the other way counts as inactive or inconclusive;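 further: plate controls were enzyme without inhibitor for no effect and buffer without enzyme for full effect; nearly all actives have a fitted effect of over 40% in size; top concentration of the series not given in the record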
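Detergent-free condition (0.00005% Triton X-100) in acetate buffer pH 5.5 with DTT. 1.5 nM enzyme and compound were pre-mixed 15 min, then 2 uM Z-FR-AMC substrate added; reaction progress from fluorescence change between first and third reads (60 s).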
* = called active by the depositor; u = inconclusive; x = not tested or not shown; & = joins results of further samples; ! = a repeat was not active; [ ] = dose if it differs, or a comment. Unless noted, the call rests on the fitted dose curve; in most records, active means well fitted rising curve with a large enough effect; inconclusive means small, poorly fitted or top-dose-only effect; inactive means no such curve, though single readings can be large or run the other way. Potency means the concentration at half of the fitted maximal effect.

SMILES	RE007 growth inh	Cruzain inh Det	Lassa entry inh	SARS PLpro yeast	StopGo reporter	MARV entry inh	NS1 function inh	Cruzain noTriton
Cc1ccc(C(=O)N2CCCCC2C(=O)O)o1 (configuration not stated)	5.3%	x	12.2%	0.2%	-11.7%	-16.9%[46.1 µM]	2.6%	x
Nc1ccn(CC(=O)N2CCN(c3ccccn3)CC2)c(=O)n1	-4.3%	x	x	-0.6%	-11.2%	0.7%	x	x
COc1ccc(CN2CCCC(C(=O)Nc3cccc(-n4cccn4)c3)C2)c(F)c1 (configuration not stated)	-0.7%	x	x	3.2%	-16.9%	x	4.9%	x
COc1ccc2ncc3c(-c4ccc(C)c(C)c4)nn(CC(=O)Nc4ccccc4)c3c2c1	x	-3.0%	-15.6%[46.1 µM]	x	8.7%	x	x	-27.6%
O=C(NCc1cccnc1)c1ccc(NC(=O)c2ccc(Br)cc2)cc1	6.0%	x	u	-1.1%	u	u	-9.4%	x
Cc1ccc(NC2=C(NC(=O)c3ccccc3)C(=O)c3ccccc3C2=O)cc1Cl	u	-4.5%	u	-47.7%	-26.7%	u	-33.4%	-5.8%
O=C(O)C1=C(C(=O)Nc2cccc(C(F)(F)F)c2)CCCC1	1.2%	x	9.4%[46.1 µM]	0.8%	-19.2%	4.0%	x	x
COc1ccccc1N=c1oc2cc(O)ccc2cc1C(N)=O	8.91µM*	-21.3%	-27.6%	-33.0%	29.6%	-27.6%	-64.8%	u
CN(C)C(=O)c1ccc(NC(=O)c2cc(-n3cnnc3)ccc2Cl)cc1	-12.5%	2.0%	11.5%	5.4%	8.8%	5.7%	12.9%	1.1%
Cc1ccc(OCCC(=O)OCC(=O)Nc2cc(S(=O)(=O)N(C)C)ccc2C)cc1	1.7%	x	18.6%[46.1 µM]	-2.2%	-1.5%	-23.0%[46.1 µM]	x	x
O=C(Nc1ccc2snnc2c1)N1CCSCC1	-15.1%	-1.9%	19.2%	1.6%	2.0%	-6.6%&-6.6%	15.3%	-6.3%
Oc1cc2c(cc1O)CN(C(=S)NCCc1ccc(Cl)cc1)CCC2	6.8%[18.4 µM]	-16.7%&-16.2%	11.6µM*	x	u	0.355µM*!	-8.3%	-6.7%&-2.7%
C[C@H](NC(=O)OC(C)(C)C)C(=O)NCC1CCC(C(=O)N[C@@H](Cc2ccccc2)C(=O)O)CC1 (some centres not stated)	-11.1%	x	x	3.7%	-2.9%	x	2.0%	x
O=C(NNc1ccc([N+](=O)[O-])cc1)c1ccccc1F	28.5%	x	10.5%	-3.7%	39.5%[activator]	3.2%[46.1 µM]	-48.0%	x
Cc1ccc(CNC(=O)C(Cc2ccccc2)NS(=O)(=O)c2ccc3c(c2)CCC(=O)N3)cc1 (configuration not stated)	-0.5%	-1.1%	x	3.3%	-11.7%	1.6%	6.8%	7.9%
Cc1ccc(NC2CCCN(C(=O)c3c(C)noc3C)C2)cc1C (configuration not stated)	2.8%	x	2.2%	6.2%	-11.8%	27.5%	14.2%	x
CCOC(=O)c1c(C)[nH]c2c1-c1ccccc1C(=O)C2=O	-10.1%	-2.5%	u	-13.7%	7.08µM*	-30.2%	-8.0%	6.0%
COc1cccc(-c2nc(CS(=O)(=O)CC(=O)N3CCc4ccccc4C3)c(C)o2)c1	3.5%	-4.1%	x	-2.6%	u	0.9%	-35.1%	6.0%
Cc1ccc(N2C(=O)CC(Sc3nc(-c4ccccc4)c4cc(Cl)ccc4n3)C2=O)c(C)c1 (configuration not stated)	4.4%	-8.1%	0.9%	-9.4%	-22.3%	6.7%	1.2%	15.8µM*
CCCc1cc(=O)oc2c(C)c(OCC(=O)NC3CC(C)(C)NC(C)(C)C3)ccc12	-29.0%	x	-25.0%[46.1 µM]	0.4%	-18.3%	u	-3.6%	x
Cc1ccccc1CN(c1ccc(C(=O)Nc2ccccc2C(=O)NCc2ccco2)cc1)S(C)(=O)=O	10.5%	0.3%	-3.5%	-4.4%	0.0%	u	u	-7.4%
O=c1c2ccccc2sc2ccccc12	-5.8%	x	41.7%	x	55.3%[activator]	-0.9%	x	x
CCCNC(=O)c1cc2n(n1)CCCN(Cc1ccc(C)cc1)C2=O	x	-2.2%	9.0%[46.1 µM]	x	10.4%	x	x	13.3%
O=C(CCC1CCCCC1)NCc1ccccn1	-9.2%	-0.7%	1.5%	8.4%	-9.6%	u	u	21.6%
COc1ccc(O[C@H]2C=C[C@@H](c3ccccc3)O[C@@H]2COC(=O)CC/C(C)=N/O[C@H](C)c2cn([C@@H]3COC[C@H]3O)nn2)cc1	x	-3.1%	u	5.0%	x	u	-6.4%	u

Ordered by formula weight (descending): some entries from above
SMILES	RE007 growth inh	Cruzain inh Det	Lassa entry inh	SARS PLpro yeast	StopGo reporter	MARV entry inh	NS1 function inh	Cruzain noTriton
Cc1ccccc1CN(c1ccc(C(=O)Nc2ccccc2C(=O)NCc2ccco2)cc1)S(C)(=O)=O	10.5%	0.3%	-3.5%	-4.4%	0.0%	u	u	-7.4%
Cc1ccc(NC2CCCN(C(=O)c3c(C)noc3C)C2)cc1C (configuration not stated)	2.8%	x	2.2%	6.2%	-11.8%	27.5%	14.2%	x
Nc1ccn(CC(=O)N2CCN(c3ccccn3)CC2)c(=O)n1	-4.3%	x	x	-0.6%	-11.2%	0.7%	x	x

Back to the main list, repeating the 2 entries before the break.
SMILES	RE007 growth inh	Cruzain inh Det	Lassa entry inh	SARS PLpro yeast	StopGo reporter	MARV entry inh	NS1 function inh	Cruzain noTriton
O=C(CCC1CCCCC1)NCc1ccccn1	-9.2%	-0.7%	1.5%	8.4%	-9.6%	u	u	21.6%
COc1ccc(O[C@H]2C=C[C@@H](c3ccccc3)O[C@@H]2COC(=O)CC/C(C)=N/O[C@H](C)c2cn([C@@H]3COC[C@H]3O)nn2)cc1	x	-3.1%	u	5.0%	x	u	-6.4%	u
COc1ccc(C2=Nn3c(nnc3-c3ccccn3)SC2)cc1OC	-15.1%	-4.8%	-15.7%	6.5%	-25.4%	-5.1%&-5.1%	-0.8%	-22.6%
Cc1cc(C)c2c(=O)c3c(oc2c1)C(=O)N(Cc1ccco1)C3c1ccc(F)cc1 (configuration not stated)	x	-0.3%	-1.0%[46.1 µM]	x	4.3%	19.0%[46.1 µM]	x	-19.4%
CCOC(=O)C1CCCN(c2nc(C)nc3c2oc2ccccc23)C1 (configuration not stated)	5.0%	-15.9%	u	-0.7%	22.4µM*	u	-75.9%	5.6%
O=C1CCCC2=C1C(c1ccsc1)CC(=O)N2c1nnc(SCc2ccccc2)s1 (configuration not stated)	3.3%	-0.8%	x	9.1%	-18.6%	-2.2%	10.9%	u
CCc1ccccc1NC(=O)C1CCCN1C(=O)Nc1ccc(C)cc1 (configuration not stated)	0.8%	x	14.3%	1.0%	1.4%	1.4%[46.1 µM]	-8.3%	x
CN1CCN(S(=O)(=O)c2ccc(C3CCCCC3)cc2)CC1	16.0%	x	20.6%	2.4%	-15.1%	27.5%	x	x
COc1cccc(NC(=O)C2CC(=O)n3cnnc3S2)c1 (configuration not stated)	35.5µM*	-0.6%	0.9%	-28.7%	-18.0%	13.8%	-55.0%	-5.0%
COc1cc(CN2CCC(C(=O)NC3CCCC3)CC2)cc(OC)c1O	-1.0%	-0.3%	2.1%	-2.3%	0.0%	0.9%&0.9%	u	8.2%
O=C(c1cccc(Cl)c1)N1CCN(C2CCCCC2)CC1	9.7%	x	x	4.9%	-6.1%	x	-7.4%	x
N#Cc1c(F)cccc1NCCCn1ccnc1	3.2%	x	0.7%[46.1 µM]	x	-13.3%	5.8%[46.1 µM]	x	x
O=C(NCc1ccco1)c1cnn2cccnc12	-6.1%	x	7.7%[46.1 µM]	-1.1%	-0.7%	-0.4%[46.1 µM]	3.1%	x
CC(C)CNS(=O)(=O)c1ccc(CCC(=O)Nc2cc(Cl)ccc2Oc2ccccc2)cc1	38.8%	-1.3%	u	9.6%	u	-5.9%[46.1 µM]	24.4%	-3.7%
CCCCn1c(N)c(N(CCOC)C(=O)CCc2ccc(OC)cc2)c(=O)[nH]c1=O	7.6%	1.1%	3.1%	-12.7%	-9.6%	12.5%	-0.4%	7.8%
COCCN(C(=S)Nc1cccc(C)c1)C(C)c1cccs1 (configuration not stated)	-9.5%	-6.1%	-16.7%	-43.5%	33.9%[activator]	-33.8%	-12.8%	3.0%
CCN(CC)S(=O)(=O)c1ccc(NC(=O)c2cc(-c3ccccc3)nc3ccccc23)cc1	7.4%	-3.5%	u	-11.0%	-9.3%	u	11.0%	u
Cc1cc(C(=O)N/N=C/c2cccn2C)no1	-7.3%	-10.0%	18.6%	-5.1%	-25.3%	5.4%	-1.7%	3.2%
Cc1cc(Br)ccc1NC(=O)CNC(=O)CSc1ncccn1	2.1%	x	12.5%	0.8%	11.8%	19.8%	x	x
NC(=O)CC1(CC(=O)O)CCCCC1	-11.6%	0.1%	u	-10.1%	5.2%	-10.1%	5.9%	22.3%
CCOC(=O)C1CCCN(C(=O)c2[nH]c3ccccc3c2Sc2ccc(Cl)cc2)C1 (configuration not stated)	x	-3.8%	9.8%[46.1 µM]	x	-9.6%	3.1%[46.1 µM]	x	-15.7%
Cn1c2c(c(=O)n(C)c1=O)C(NC(=O)c1ccco1)(C(F)(F)F)C(=O)N2 (configuration not stated)	4.9%	2.0%	8.5%	-1.6%	-17.5%	-0.5%	u	-7.0%
O=C(O)c1ccccc1OCc1nc2ccccc2s1	-15.7%	x	u	-4.0%	0.0%	-26.3%[46.1 µM]	3.1%	x
CC(C)C(NS(=O)(=O)c1cccs1)C(=O)N(C)Cc1ccccc1 (configuration not stated)	12.9%	-3.3%	u	0.6%	x	0.9%	-2.8%	-12.0%
Cc1ccccc1-n1c(C)nc2ccccc21	-4.6%	-1.2%	u	4.7%	u	-5.6%	10.2%	10.0%
